ClpP mod – qHTS Assay for Activators of ClpP; 340,000 compounds, 1.9% hits; ATP-dependent Clp protease proteolytic subunit (Bacillus subtilis (strain 168)), P80244; Potency, µM (titrated, usually from 57.5 µM), for inactives: at the highest dose activity change, negative = active; AID 651965, 2013; purified B. subtilis ClpP, FRET peptide cleavage, 20 min; active = well fitted falling curve with a large enough effect; inconclusive = small, poorly fitted or top-dose-only effect; inactive = no such curve, though single readings can be large or run the other way; also: potency is read from the fitted curve at half-maximal effect; the source files actives as falling curves though it sought activators and does not explain the sign; nearly all actives have a fitted effect of over 65% in size; many hits overshoot -100%
Target sequence (P80244 whole entry, looked up): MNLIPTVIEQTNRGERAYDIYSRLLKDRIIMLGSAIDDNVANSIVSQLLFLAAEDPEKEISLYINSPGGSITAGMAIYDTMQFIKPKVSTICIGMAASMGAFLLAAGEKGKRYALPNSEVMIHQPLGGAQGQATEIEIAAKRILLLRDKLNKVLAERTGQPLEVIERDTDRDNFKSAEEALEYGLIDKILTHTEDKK
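Purified B. subtilis ClpP, 10 microg/mL final in Tris/HCl pH8 with KCl, BSA, glycerol and Tween-20, cleaved an Abz/nitrotyrosine-quenched decapeptide. Fluorescence (ex 320, em 430) was read at 0 and 20 min at room temperature. Delta was normalized to 5.8 microM ADEP and DMSO/no-enzyme controls.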
TRPV1 PAM – potentiators of human vanilloid receptor 1 (TRPV1); potentiation, % at 8.33 µM; TRPV1-expressing cells, Fluo-8 calcium influx, capsaicin EC20 potentiation; host cell line not named in the record; control for the full effect not named in the record; Q8NER1; 320,000 compounds, 0.02% hits; active means potentiation above 80%; inconclusive means 30% to 80%; inactive means below 30%; also: 0% is about no effect
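Cells expressing TRPV1 were dye-loaded with Fluo-8 and read kinetically: 10 s baseline, 3 min after compound (agonist portion), then 2 min after EC20 capsaicin (allosteric enhancer portion). Calcium-bound dye fluorescence at 480/520 nm.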
Sfp inh – Sfp phosphopantetheinyl transferase inhibition; 310,000 compounds, 3.5% hits; Q9F4F7; Biochemical Sfp PPTase activity, qHTS; Potency, µM, inactives show max response, negative = inhibition, usual class: inhibitors; active = well fitted inhibition curve with a large enough effect; inconclusive = small, poorly fitted or top-dose-only effect, or another doubt; inactive = no such curve, though single readings can be large or run the other way;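 also: the enzyme is Sfp with the accession as filed and its product quenches rhodamine fluorescence; potency is read from the fitted curve at half-maximal effect; 0% = enzyme reaction without inhibitor and -100% = no enzyme wells; top concentration of the series not given in the record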
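After 15 min at room temperature with compound, 15 nM Sfp received 5 uM rhodamine-CoA plus 12.5 uM BHQ-2-ybbR (50 mM Hepes pH 7.6, 10 mM MgCl2). Rate came from the fluorescence difference over 30 min, ex 525/em 598 nm.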
Menin-MLL FL inh – displaces fluorescein MLL peptide from human menin. FP activity change, % at 61.4 µM. Fluorescence polarization, fluorescein-MLL peptide displacement from menin. 290,000 tested, under 10 active; inconclusive = falling polarisation curve, or a change in total fluorescence; inactive = total fluorescence flat and polarisation flat or rising; no compound was filed as active; the % refers to the polarisation; negative = inhibition;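 also: % of control where 0% means no effect; inhibitors lower the polarisation; unlabelled MLL peptide was the positive control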
D2 potentiator – positive allosteric modulators of human D2 dopamine receptor. P14416. DiscoveRx D2 beta-arrestin cells, luminescence, 90 min; 100% = 57 uM dopamine signal. potentiation, % (concentration not given with the values). 360,000 compounds, 0.23% hits; active = potentiation of 50% or more; inconclusive = 30% to 50%; inactive = 30% or less;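 also: tested on top of an EC20 dose of dopamine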
Target sequence (P14416 whole entry, looked up): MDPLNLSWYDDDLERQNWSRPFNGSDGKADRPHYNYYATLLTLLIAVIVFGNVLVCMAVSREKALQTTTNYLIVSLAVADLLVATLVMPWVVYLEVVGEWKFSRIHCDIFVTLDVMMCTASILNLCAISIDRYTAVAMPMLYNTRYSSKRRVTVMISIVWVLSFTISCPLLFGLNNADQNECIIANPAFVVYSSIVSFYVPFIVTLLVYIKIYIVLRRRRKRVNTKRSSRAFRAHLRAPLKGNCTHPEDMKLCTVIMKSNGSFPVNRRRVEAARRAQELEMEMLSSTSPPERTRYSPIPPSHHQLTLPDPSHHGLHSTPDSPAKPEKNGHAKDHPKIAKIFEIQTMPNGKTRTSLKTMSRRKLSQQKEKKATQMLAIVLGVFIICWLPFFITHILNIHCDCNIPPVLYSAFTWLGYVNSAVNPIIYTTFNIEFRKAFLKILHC
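PathHunter D2 cells, attached overnight at 37 deg C, received compound in DMSO plus dopamine at EC20 (50 nM final) for 90 min at 37 deg C. Beta-arrestin recruitment was read as luminescence after 1 h with detection reagent at ambient temperature.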
gsp antag – antagonizes gsp, the McCune-Albright syndrome mutation; gsp-mutant cells, cAMP HTRF, 30 min; control for the full effect not named in the record; Potency, µM (top dose mostly 76.9 µM), inactives show at the top dose activity change, negative = inhibition, hits mostly inhibitors; 340,000 compounds, 0.4% hits; AID 624288; active = falling curve of any shape with a large fitted effect; inconclusive = falling curve, mostly with a smaller effect; inactive = flat or rising curve; cell line not stated here;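 also: intracellular cAMP measured with PDE inhibitor Ro 20-1724 present during compound exposure; potency is read from the fitted curve at half-maximal effect; % is scaled to controls: 0 for no effect and ±100 for the full control effect; nearly all actives have a fitted effect of over 65% in size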
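Measurement of cellular cAMP by homogeneous time-resolved fluorescence following a 30 min compound exposure at 37C. The PDE inhibitor […] was present throughout; the assay buffer was DPBS with 0.05% BSA and 0.005% Tween 20.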
gsp ag – gsp mutant agonism | 340,000 compounds, 0.13% hits | Potency, µM (highest dose often 76.9 µM), for the others: at the top dose activation (cAMP increase), actives largely listed as activators | gsp mutant cells, cAMP HTRF, 30 min; control for the full effect not named in the record; active = well fitted activation curve with a large enough effect; inconclusive = small, poorly fitted or top-dose-only effect, or another doubt; inactive = no such curve, though single readings can be large or run the other way; cell line not stated here;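 also: phosphodiesterase inhibitor Ro 20-1724 added with compounds to block cAMP breakdown; potency is read from the fitted curve at half-maximal effect; nearly all actives have a fitted effect of over 60% in size; about a fifth of the inactives were tested at one dose only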
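Cells in DMEM/10% FBS with G418 were pretreated with compounds in DMSO plus […] (300 uM stock) for 30 min at 37C. cAMP was measured by HTRF (cAMP-d2 plus anti-cAMP antibody-K) after 30 min at room temperature.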
* hit, by the source's call; ? = inconclusive; . = not tested or not shown; & = joins results of further samples; [ ] = dose if it differs, or a comment.

SMILES	ClpP mod	TRPV1 PAM	Sfp inh	Menin-MLL FL inh	D2 potentiator	gsp antag	gsp ag
Cc1ccc(S(=O)(=O)N2C[C@H]3N(C(=O)OC(C)C)N(C(=O)OC(C)C)C[C@H](OC(=O)NCC4CCCCC4)[C@@]3(O)C2)cc1	-0.5%	.	.	.	-6.6	.	10.8%
COc1ccccc1/C=C/CN1CCN(Cc2ccc(F)cc2)C(CCO)C1 (stereo not given)	0.5%	2.5	5.8%	-1.0	-17.6	11.7%	-8.1%[15.4 µM]
CCOC(=O)C1=C(C)Nc2ccccc2N=C1NC(=O)c1cc(C)on1	-2.1%	1.9	.	.	-0.2	4.0%	22.6%
Cc1cccc(N2C(S)=C(C#N)C(=O)NC2c2cccs2)c1 (stereo not given)	-0.6%	1.0	31.6µM*	0.4	4.1	11.4%	-14.6%
COc1ccc(CN2CCN(Cc3ccccc3C(F)(F)F)CC2)c(OC)c1	-0.8%	13.3	?	-4.2	-16.3	15.4%	3.3%[15.4 µM]
C(=N\Nc1ncnc2sc3c(c12)CCC3)/c1cccs1	.	7.3	15.5%	2.5	.	.	.
O=C(Nc1cc(-c2ccccc2)[nH]n1)c1ccccc1F	.	-6.8	-10.2%	1.3	-3.7	-5.9%	-4.1%[15.4 µM]
COc1cc(/C=C2\CCCc3c2nc2ccccc2c3C(=O)O)cc(Br)c1O	.	28.8	-5.4%	?	-1.3	4.9%	10.2%
CN(C)CCNC(C(=O)Nc1cc(Cl)cc(Cl)c1)c1ccccc1 (stereo not given)	.	-5.6	6.6%	1.9	-8.4	7.0%	-11.0%[15.4 µM]
O=C(O)c1cc(-c2ccc(/C=N/Nc3ccc([N+](=O)[O-])cn3)o2)ccc1Cl	.	-43.0	44.7µM*	?	-4.7	-10.4%	-15.0%[15.4 µM]
CCOC(=O)c1ccc[n+](CC(=O)c2ccc(OC)cc2)c1	-4.0%	-6.5	0.3%	0.2	-5.9	6.3%	-17.9%
CN=C1CC(C)(C)CC(=O)/C1=C(/O)CCCN1C(=O)c2ccccc2C1=O	.	-3.2	12.1%	0.4	-2.0	-10.9%	2.9%[15.4 µM]
CC1(C)CC2CC(C)(CN2C(=O)COC(=O)c2ccc(Cl)cc2N)C1 (stereo not given)	28.2µM*	-30.3	7.9%	-2.8	-18.6	-4.2%	-22.5%
CC(=O)c1ccc(NC(=O)CSc2nc(N)c3cc4c(nc3n2)CCCC4)cc1	?	-0.5	-16.5%	11.9	5.4	-12.3%	-27.6%
Cc1nc(SCCO)c([N+](=O)[O-])[nH]1	-0.6%	2.3	?	0.7	-31.2	-12.0%	11.9%[15.4 µM]
C=CCn1c(SCC(=O)c2ccc(Cl)s2)nc2ccccc2c1=O	-0.2%	18.9	-28.0%	0.9	-2.1	-23.7%	0.0%
O=C(CN1CCOCC1)Nc1ccc([N+](=O)[O-])cc1Br	1.3%	3.5	17.6%	4.8	0.5	4.3%	15.4%
CCOc1ccc(C(=O)NCC(=O)NCCOc2ccc(C)cc2)cc1	-1.0%	1.9	1.4%	1.4	-12.7	2.4%	26.9%
O=C(NCC1CC1)Nc1ccc(Cl)cc1	-0.7%	-29.2	7.1%	1.5	-6.1	6.8%	-22.8%
CC(C)NCCCCOc1ccc(Br)cc1Cl	-0.3%	5.5	?	2.6	-13.0	2.5%	2.0%
Cc1ccc2nc(C)cc(C(=O)OCC(=O)Nc3cccnc3Cl)c2c1	.	-13.9	15.1%	3.5	4.1	3.7%	-8.0%[15.4 µM]
NNc1nc2ccc(Cl)cc2s1	1.6%	-12.9	-21.5%	-3.0	-22.9	?	8.8%[15.4 µM]
CCOc1ccc(NC(=O)CSc2nnc(CCNC(=O)c3ccc(OC)cc3)n2CC)cc1	-3.1%	11.2	17.1%	0.9	-4.9	-6.0%	-33.2%
COc1ccc(C(CNC(=O)c2ccc(S(=O)(=O)N3CCCC3)cc2)N2CCOCC2)cc1 (stereo not given)	1.9%	22.9	1.0%	2.2	2.0	-12.6%	-18.9%
CCOC(=O)C1(CCOc2ccccc2)CCN(Cc2ccc(OC)c(O)c2)CC1	-0.1%	?	17.5%	-5.1	-4.1	10.8%	?
Cc1ccc(C2NC(=O)c3c(sc4c3CCN(C)C4)N2)s1 (stereo not given)	25.1µM*	9.6	-1.9%	?	-29.2	-6.7%	-8.1%
CC(=O)Nc1c2c(nn1-c1ccccc1)CS(=O)C2 (stereo not given)	2.6%	2.6	11.5%	-3.4	-8.8	-4.5%	9.7%
Cc1onc(-c2c(Cl)cccc2Cl)c1C(=O)n1nnc2ccccc21	.	6.6	4.3%	1.1	.	.	.
Nc1c(-c2ccc(F)cc2)cnc2ncnn12	-2.4%	21.0	1.6%	0.2	-3.1	16.0%	6.8%
Cc1ccc2c3c([nH]c2c1)C(=O)CC(C)(C)S3	.	0.0	12.5%	1.6	-4.7	-8.4%	29.4%[15.4 µM]
COc1ccccc1N(C)S(=O)(=O)c1ccc(Cl)c(C(=O)NNC(=O)c2ccccc2O)c1	-0.4%	1.9	56.2µM*	.	-8.8	?	-34.3%
CCc1cc(=O)oc2cc(OCC(=O)NC3CC(C)(C)NC(C)(C)C3)ccc12	.	-1.8	14.0%	.	-0.5	2.7%	16.2%
Cc1csc(NC(=O)/C=C/c2ccc3c(c2)OCO3)n1	5.1%	-4.4	4.0%	-0.9	5.5	-1.3%	-0.3%
O=S(=O)(c1ccc(F)c(F)c1F)N1CCN(C(=S)Nc2ccccc2)CC1	.	-19.0	20.4%	2.1	-2.3	6.7%	2.8%[15.4 µM]
COc1ccc(CC2(c3ccccc3)NC(=O)NC2=O)cc1 (stereo not given)	.	.	.	.	2.6	7.9%	-10.5%
CCCCNC(=O)CCCCC(=O)N/N=C/c1ccccc1Cl	-1.0%	-2.2	-9.1%	4.3	1.6	-4.5%	-5.9%
CCN1CCN(c2ccc(S(=O)(=O)N3CCCCC3)cc2NC(=O)c2cccc(C)c2[N+](=O)[O-])CC1	.	?	.	.	-1.0	0.9%	15.6%[15.4 µM]
Oc1ccc2ccccc2c1/C=C/c1ccc2c(Br)cc(Br)c(O)c2n1	-2.0%	.	.	.	-22.0	-14.9%	7.3%
CCOC(=O)c1cc(NC(=O)c2cc(C)on2)cc(C(=O)OCC)c1	-1.8%	-14.9	4.5%	5.2	-5.9	10.6%	10.7%
CCN1C(=O)OC2(CCCCC2)C1(C)O (stereo not given)	.	-4.0	2.2%	3.9	.	.	.
COc1ccc(CN2CCNC(=O)C2CC(=O)NCCN2CCCCC2=O)c(F)c1 (stereo not given)	-3.2%	-8.4	-3.4%	.	-4.2	5.4%	-47.0%[inhibitor]
NC(=O)C1CCN(C(=O)C2CCN(C(=O)Nc3ccccc3)CC2)CC1	-0.6%	-9.9	.	.	3.4	-12.3%	-84.4%[inhibitor]
C/C(=N\NC(=O)c1ccc(O)cc1O)c1cccnc1	-4.8%	-7.5	-1.1%	-0.6	-7.3	-2.9%	18.1%
CC(C)C(=O)N1CCN(c2nc(-c3ccccc3)c3c(c2C#N)CC(C)(C)OC3)CC1	28.2µM*	-20.2	-18.7%	1.9	-2.0	-7.7%	2.5%
CC12CCC(CC1O)C2C(=O)O (stereo not given)	-2.1%	.	.	.	-5.1	.	?
CCS(=O)(=O)N1CCC(C(=O)Oc2ccccc2)CC1	?	9.3	12.7%	-1.0	-10.0	-17.4%	4.5%[15.4 µM]
CCN(CC)C(=O)CN1C(=O)C2CC=C(Cl)CC2C1=O (stereo not given)	-1.1%	3.5	1.3%	-20.6	9.5	7.0%	-4.2%
Cc1cccc(C)c1NC(=S)N(Cc1ccco1)C1CCN(C(C)C)CC1	2.2%	0.8	-3.4%	4.6	-23.9	9.4%	-82.6%[inhibitor]
CC(=O)OC(C)C1C2=C(C(=O)CC1(C)O)C(=O)c1c(ccc(-c3ccc4c(c3O)C(=O)C3=C(C4=O)C(C(C)OC(C)=O)C(C)(O)CC3=O)c1O)C2=O (stereo not given)	-2.8%	.	.	.	21.9	-10.4%	20.3%
CC(C)(C)c1ccc(C(=O)NC(=S)NCC2CCCO2)cc1 (stereo not given)	-1.4%	-2.9	-0.5%	5.1	-6.9	2.2%	25.5%[15.4 µM]
O=c1oc2ccccc2c(NC2CCCCC2)c1NS(=O)(=O)c1ccc(F)c(Cl)c1	-9.0%	-9.4	22.0%	.	-14.5	-29.1%	?
Cc1cc(C)c(C)c(S(=O)(=O)N2CCN(C(=O)CCc3nc4ccccc4c(=O)[nH]3)CC2)c1C	1.5%	-6.4	-1.2%	.	7.9	-15.1%	-13.1%
CS(=O)(=O)N(CC(=O)NC1CCCC1)c1ccc(Oc2ccccc2)cc1	0.1%	1.6	3.2%	-0.1	-0.4	-5.0%	38.2%
O=C(NCc1ccccc1)[C@H]1C[C@@H]1[C@H](NP(=O)(c1ccccc1)c1ccccc1)c1ccccc1	-0.1%	20.6	9.4%&-10.1%	-0.1&-3.0	-14.9	-19.3%	.
CCc1cc2c(NCc3ccco3)ncnc2s1	-3.7%	-17.6	12.1%	0.5	-9.9	-12.7%	-28.3%
COc1ccc(-c2cc(C(=O)N3CCCC3)c3ccccc3n2)cc1OC	-11.6%	2.1	10.1%	3.1	13.1	5.7%	-11.7%
CCOc1cccc(C(=O)Nc2ccccc2C(=O)N2CCN(C)CC2)c1	-3.2%	24.5	0.5%	0.8	2.6	3.9%	-55.5%[inhibitor]
O=C(C1CCN(c2ncnc3c2nc2n3CCCCC2)CC1)N1CCN(c2ccccc2F)CC1	1.6%&-3.6%	-3.3	9.0%	-0.9	-3.4	7.8%	2.1%
CCOc1ccc2nc(NCCNS(=O)(=O)c3ccccc3)c(C#N)cc2c1	?	3.6	79.4µM*	0.8	0.8	-2.1%	-19.4%

Reprinted at random: 2 compounds from above.
SMILES	ClpP mod	TRPV1 PAM	Sfp inh	Menin-MLL FL inh	D2 potentiator	gsp antag	gsp ag
CS(=O)(=O)N(CC(=O)NC1CCCC1)c1ccc(Oc2ccccc2)cc1	0.1%	1.6	3.2%	-0.1	-0.4	-5.0%	38.2%
O=C(NCc1ccccc1)[C@H]1C[C@@H]1[C@H](NP(=O)(c1ccccc1)c1ccccc1)c1ccccc1	-0.1%	20.6	9.4%&-10.1%	-0.1&-3.0	-14.9	-19.3%	.

Bioassay records from PubChem.
